Assay outcomes as filed in PubChem BioAssay.
GALR2 ag: activates the human galanin receptor 2 | O43603 | GALR2-expressing cells, agonist activation read-out | activation, %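 (tested at 5 µM)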 | hit rate 0.48% among 140,000 | AID 803;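 active means above mean plus 3 SD of all compounds, about 5% in these data, not always enough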;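 further: 0% = vehicle buffer wells and 100% = reference agonist at full effect; tested in CHO reporter cells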
Target sequence (O43603 whole entry, looked up): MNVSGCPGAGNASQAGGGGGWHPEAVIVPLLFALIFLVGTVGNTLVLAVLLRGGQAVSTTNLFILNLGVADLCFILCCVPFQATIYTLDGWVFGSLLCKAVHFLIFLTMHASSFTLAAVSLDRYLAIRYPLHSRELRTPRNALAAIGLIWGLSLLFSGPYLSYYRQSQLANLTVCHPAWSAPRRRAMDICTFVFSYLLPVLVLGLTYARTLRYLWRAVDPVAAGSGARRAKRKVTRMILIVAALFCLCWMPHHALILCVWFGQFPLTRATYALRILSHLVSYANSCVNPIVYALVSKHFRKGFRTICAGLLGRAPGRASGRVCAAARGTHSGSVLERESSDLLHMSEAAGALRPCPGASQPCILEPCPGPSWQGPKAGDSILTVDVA
INS promoter inh: TRM-6 insulin promoter activity inhibition; TRM-6 cells (human fetal islet line), insulin promoter-eGFP reporter, imaging; reporter expression induced with tamoxifen; inhibition, % at 2 µM; hit rate 0.9% among 130,000; AID 1273;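 active means inhibition above the mean plus 3 SD, with well images judged a real hit on visual review, cut at about 60% in these data, passing the limit was not always enough; inconclusive means inhibition over the cutoff but images rejected on review; inactive means inhibition not above the cutoff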
PKD1 kinase inh: inhibitors of human PKD1 kinase. Q15139. PKD1 kinase fluorescence polarization assay. inhibition, %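 (about 10 µM by stock and volumes)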. hit rate 0.056% among 200,000. AID 797;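 active means inhibition of 50% or more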;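 further: controls were vehicle for no effect and a reference inhibitor for full effect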
HSV augment: increases HSV replication in cells | hit rate 0.005% among 220,000 | maximum fold increase | HSV replication augmentation in cells, fold increase;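 active means peak rise of 1.5-fold or more in the series; inconclusive means self-fluorescent or not available for retest; tested in PC3 cells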;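 further: first round at 10 µM; read as green reporter fluorescence; hits show the peak of a series up to 25 µM; 1 = signal of infected wells without compound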
RGS16-Gao HTS: RGS16-Galphao interaction regulator (human). binding response (% of control), % at 10 µM. hit rate 0.38% among 220,000. bead-based flow cytometry RGS16-Galphao binding, fluorescence; actives lie on both sides. O15492+P09471;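 active means below 25% or above 175%, edge rows of some plates excepted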;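 further: Galphao activated by GDP with aluminum fluoride before binding; 100% = wells without compound and 0% = beads without RGS; some results beyond the cut were filed as inactive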
Target sequence (O15492 whole entry, looked up): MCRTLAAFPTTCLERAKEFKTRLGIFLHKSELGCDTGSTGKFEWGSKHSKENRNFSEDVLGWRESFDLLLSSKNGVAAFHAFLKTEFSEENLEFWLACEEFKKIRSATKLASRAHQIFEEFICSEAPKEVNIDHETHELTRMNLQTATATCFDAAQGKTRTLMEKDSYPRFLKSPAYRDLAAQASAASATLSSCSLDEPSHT
Target sequence (P09471 whole entry, looked up): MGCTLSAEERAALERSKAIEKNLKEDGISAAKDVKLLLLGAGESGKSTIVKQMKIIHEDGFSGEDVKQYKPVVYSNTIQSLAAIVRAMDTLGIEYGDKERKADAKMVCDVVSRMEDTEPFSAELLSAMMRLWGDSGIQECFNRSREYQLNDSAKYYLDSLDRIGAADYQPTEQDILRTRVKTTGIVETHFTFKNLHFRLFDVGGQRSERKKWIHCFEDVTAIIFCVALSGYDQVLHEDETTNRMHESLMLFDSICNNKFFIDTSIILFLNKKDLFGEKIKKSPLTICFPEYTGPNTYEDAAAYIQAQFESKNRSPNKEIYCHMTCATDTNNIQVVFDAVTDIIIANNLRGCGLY
INS promoter inh cell count: further read-out of INS promoter inh, marked with its call; normalized cell count, %; measured here: cell count, toxicity; reference of the scale not given here;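 cells exposed to compound for 48 h; stained nuclei by imaging scaled within each plate; lower means fewer cells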
HSV augment primary fold: second read-out of HSV augment, no call of its own (marks repeat the call); fold increase; compound at 10 µM; measured here: primary screen fold increase 10 uM; tested in PC3 cells;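 GFP signal in the first replicate; 1 = infected wells without compound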
Numbers without * were called inactive; i = inactive; ? = inconclusive; nt = no result given. This is a random part of the collection. About 1.3% of those tested had a hit in this group.

no. | SMILES | GALR2 ag | INS promoter inh | INS promoter inh cell count | PKD1 kinase inh | HSV augment | HSV augment primary fold | RGS16-Gao HTS
1 | COc1cc(-c2nnc(SCc3cc(=O)oc4cc(O)c(O)cc34)o2)cc(OC)c1OC | -1.5 | 35.1 | 74.7 | 7.8 | i | 1.15 | 76.3
2 | COc1ccc(NC(=O)CCN2C(=O)c3ccccc3S2(=O)=O)cc1 | -0.8 | -29.7 | 104.3 | -2.1 | i | 1.04 | 110.3
3 | C=CCNC(=O)CSc1nc2sc(C)c(C)c2c(=O)[nH]1 | -2.9 | nt | nt | -10.9 | i | 0.92 | 106.2
4 | COc1ccccc1OCCOCCn1cnc2ccccc2c1=O | -2.6 | -26.0 | 215.2 | -3.6 | i | 0.95 | 98.8
5 | Cc1ccc2c(c1)c(N=O)c(O)n2Cc1ccc(Cl)cc1 | nt | 5.9 | 105.0 | 8.7 | i | 0.86 | 100.0
6 | CC1Cc2ccccc2N1C(=O)Cn1c(=O)cc(O)c2ccccc21 (centres undefined) | -1.2 | -27.8 | 131.0 | -6.8 | i | 0.79 | 171.5
7 | COC(=O)c1ccc(C2C(C#N)=C(C)NC3=C2C(=O)CC(C)(C)C3)cc1 (centres undefined) | 2.1 | 0.0 | 95.9 | -3.5 | i | 0.99 | 100.3
8 | COc1ccc2oc(=O)c(NC(=O)C3CCCCC3)cc2c1 | -1.5 | 9.1 | 119.1 | -5.0 | i | 0.82 | 110.7
9 | COc1ccc(C2C(C(=O)O)CCC(=O)N2c2ccc(OC)cc2)cc1 (centres undefined) | 0.5 | 7.7 | 122.0 | 3.0 | i | 0.86 | 97.0
10 | COC(=O)c1nn(-c2ccccc2)c(Cl)c1/C=N/OCc1ccc(Cl)cc1Cl | 0.1 | 6.7 | 54.4 | 1.1 | i | 0.99 | 88.4
11 | Cc1ccc(S(=O)(=O)N2CCOC2CNC(=O)C(=O)NCc2ccncc2)cc1 (centres undefined) | nt | nt | nt | nt | i | 1.11 | 88.9
12 | CCOC(=O)N1CCN(CC(O)COc2ccc(OC)cc2C(C)(C)C)CC1 (centres undefined) | -0.4 | 33.3 | 128.8 | 4.2 | i | 0.87 | 105.1
13 | COc1cc(C2NC(=O)NC(c3ccccc3)=C2C(C)=O)cc([N+](=O)[O-])c1O (centres undefined) | nt | nt | nt | -2.4 | i | 1.05 | 99.1
14 | CC(=O)Nc1ccc(S(=O)(=O)Nc2c(C)nn(-c3ccccc3)c2C)cc1 | -2.7 | 34.3 | 190.3 | -3.2 | i | 0.86 | 89.1
15 | Cc1c(C(=O)Nn2cnnc2)oc2ccccc12 | -0.8 | -20.0 | 107.0 | -0.1 | i | 0.94 | 106.8
16 | Cc1ccc(-c2nn(CC(=O)NN3CCOCC3)c(=O)c3ccccc23)cc1 | nt | nt | nt | nt | i | 1.02 | 98.0
17 | O=[N+]([O-])c1ccc(S(=O)(=O)NCCc2ccncc2)cc1 | nt | nt | nt | 0.9 | i | 1 | 103.1
18 | COc1ccc2c(=O)c(C(=O)NCCc3ccc(OC)c(OC)c3)c[nH]c2c1 | -1.3 | nt | nt | -8.8 | i | 1.01 | 100.4
19 | CSc1ccccc1C(=O)C1CCCN(C(=O)CCN2CCCO2)C1 (centres undefined) | nt | nt | nt | 7.1 | i | 1.01 | 93.0
20 | COc1ccc2[nH]cc(/C=C(/C#N)S(=O)(=O)c3ccccc3)c2c1 | -1.2 | -33.3 | 83.9 | -12.7 | i | 1.02 | 106.1
21 | CCCOc1c(OC)cc(Cl)cc1C1NC(=O)NC(C)=C1C(=O)NCc1ccccc1 (centres undefined) | -2.7 | -3.3 | 69.4 | -3.3 | i | 0.8 | 97.4
22 | Nc1ccc(NC(=S)Nc2ccccc2)cc1 | nt | nt | nt | nt | i | 0.98 | 95.5
23 | Cc1ccc(C)c(-n2c3nc(=O)n(C)c(=O)c-3cc3ccccc32)c1 | nt | nt | nt | nt | i | 0.93 | 98.8
24 | CC(/C=N/NC(=O)CSc1nnc(SCc2ccccc2)s1)=C\c1ccco1 | -0.1 | nt | nt | 1.2 | nt | nt | 72.4
25 | Cc1ccc(Cl)cc1NC(=O)C1CCCN(S(=O)(=O)c2c(C)noc2C)C1 (centres undefined) | -1.9 | nt | nt | 25.5 | i | 1.29 | 107.1
26 | COCCn1c(SCC(=O)c2ccc3c(c2)OCCO3)nnc1C(C)C | -1.0 | -131.2 | 61.5 | 0.8 | i | 0.76 | 91.1
27 | CCc1cccc(CC)c1NC(=O)COc1ccccc1C(=O)c1cc(C#N)c(=O)n(C2CCCCC2)c1 | 0.3 | nt | nt | -9.3 | i | 0.9 | 103.2
28 | CC1(C)CC(c2nc(-c3ccccc3)cs2)CCS1 (centres undefined) | 0.7 | nt | nt | 6.5 | i | 0.94 | 98.3
29 | Clc1ccc(/C=N/Nc2ncnc3ccccc23)cc1Cl | -0.4 | nt | nt | 1.2 | nt | nt | 92.9
30 | COc1cccc(-n2cc(C(=O)O)c3ccccc3c2=O)c1 | -0.3 | nt | nt | -6.3 | i | 0.87 | 99.5

Given with two lines to a compound: 6 of the compounds above
Under each structure – GALR2 ag, INS promoter inh, INS promoter inh cell count, PKD1 kinase inh, HSV augment, HSV augment primary fold, RGS16-Gao HTS
21. CCCOc1c(OC)cc(Cl)cc1C1NC(=O)NC(C)=C1C(=O)NCc1ccccc1 (centres undefined)
→ -2.7, -3.3, 69.4, -3.3, i, 0.8, 97.4
22. Nc1ccc(NC(=S)Nc2ccccc2)cc1
→ nt, nt, nt, nt, i, 0.98, 95.5
23. Cc1ccc(C)c(-n2c3nc(=O)n(C)c(=O)c-3cc3ccccc32)c1
→ nt, nt, nt, nt, i, 0.93, 98.8
24. CC(/C=N/NC(=O)CSc1nnc(SCc2ccccc2)s1)=C\c1ccco1
→ -0.1, nt, nt, 1.2, nt, nt, 72.4
25. Cc1ccc(Cl)cc1NC(=O)C1CCCN(S(=O)(=O)c2c(C)noc2C)C1 (centres undefined)
→ -1.9, nt, nt, 25.5, i, 1.29, 107.1
26. COCCn1c(SCC(=O)c2ccc3c(c2)OCCO3)nnc1C(C)C
→ -1.0, -131.2, 61.5, 0.8, i, 0.76, 91.1

Continuation:
no. | SMILES | GALR2 ag | INS promoter inh | INS promoter inh cell count | PKD1 kinase inh | HSV augment | HSV augment primary fold | RGS16-Gao HTS
31 | COc1ccc2c(c1)c1nc3ccccc3nc1n2CCn1c(=O)oc2ccccc21 | -1.1 | nt | nt | -6.5 | i | 1.02 | 48.8
32 | CC(=O)Nc1ccc(-c2ccccc2)s1 | -2.3 | nt | nt | 5.3 | i | 1.02 | 201.1
33 | CS(=O)(=O)c1ccc(C(=O)NCC(c2ccco2)N2CCCCC2)cc1 (centres undefined) | nt | 18.2 | 101.4 | -2.1 | i | 0.94 | 112.1
34 | O=c1oc2cc([N+](=O)[O-])ccc2nc1/C=C(\O)c1cccc(Br)c1 | nt | nt | nt | nt | i | 0.89 | 93.4
35 | Cc1ccc(NS(=O)(=O)c2cc3c4c(cccc4c2)C(=O)NC3=O)cc1 | nt | nt | nt | -2.7 | i | 0.81 | 98.5
36 | O=C1C2ON(c3ccccc3)C(c3ccncc3)C2C(=O)N1c1ccccc1 (centres undefined) | -0.4 | 72.7* | 133.9* | -4.3 | i | 1.09 | 97.4
37 | CCc1nc2ccccc2c(C(=O)OCC(=O)NCc2ccco2)c1C | -0.8 | -40.0 | 94.1 | 7.1 | i | 0.92 | 103.9
38 | CC(=O)Nc1cc(C(N)=O)c(Cl)cc1Cl | -2.5 | 43.8 | 83.8 | -4.3 | i | 1.04 | 101.2
39 | CC(C)(C)c1ccc(NC(=O)c2ccccc2)c([N+](=O)[O-])c1 | nt | -21.4 | 116.4 | -6.1 | i | 0.79 | 99.5
40 | CCOP(=O)(OCC)/C(C#N)=C/c1ccc(-c2ccc(F)cc2F)o1 | nt | nt | nt | nt | i | 0.84 | 100.7
41 | Cc1ccc([N+](=O)[O-])cc1NC(=O)CN(C(=O)c1ccc(Cl)cc1)C1CCCCC1 | -2.8 | nt | nt | 0.5 | i | 0.77 | 113.2
42 | COCCCNC(=S)N(Cc1ccccc1)Cc1ccccc1 | -0.7 | 11.5 | 73.7 | -3.9 | i | 0.88 | 33.0
43 | CCN(CC)c1ccc(/C=N/Nc2nc3ccccc3[nH]2)c(O)c1 | -0.4 | 12.7 | 50.6 | -9.9 | ? | nt | 94.8
44 | CCN(CC)C(=O)Oc1ccc(Cl)c2cccnc12 | nt | nt | nt | -5.3 | i | 0.97 | 100.2
45 | COc1ccc(CNc2nc(NCc3ccc(OC)cc3)n(C(C)=O)n2)cc1 | 0.7 | 50.0 | 75.7 | -2.3 | i | 0.95 | 98.1
46 | CN(C)c1ccc(N2C(=O)CSC2=S)cc1 | -0.5 | 20.0 | 65.0 | 7.4 | i | 0.95 | 106.1
47 | CCCOc1ccc(C2C3=C(Nc4nc(N)[nH]c(=O)c42)c2ccccc2C3=O)cc1 (centres undefined) | nt | nt | nt | nt | i | 0.78 | 96.5
48 | Cc1ccc(C(=O)NCC(=O)NCC(=O)OCc2ccc(F)cc2)cc1 | nt | 5.9 | 136.5 | 0.3 | i | 1.04 | 96.5
49 | COc1cccc(C(=O)c2cc3ccc(O)cc3oc2=O)c1 | 2.3 | nt | nt | -9.6 | i | 0.79 | 96.8
50 | COc1ccc(CCC(=O)Nc2cccc(Cl)c2)cc1 | -1.3 | -29.0 | 114.9 | -1.0 | i | 0.97 | 104.2

Looked up by compound from the entries so far (4):
no. | SMILES | GALR2 ag | INS promoter inh | INS promoter inh cell count | PKD1 kinase inh | HSV augment | HSV augment primary fold | RGS16-Gao HTS
43 | CCN(CC)c1ccc(/C=N/Nc2nc3ccccc3[nH]2)c(O)c1 | -0.4 | 12.7 | 50.6 | -9.9 | ? | nt | 94.8
48 | Cc1ccc(C(=O)NCC(=O)NCC(=O)OCc2ccc(F)cc2)cc1 | nt | 5.9 | 136.5 | 0.3 | i | 1.04 | 96.5
49 | COc1cccc(C(=O)c2cc3ccc(O)cc3oc2=O)c1 | 2.3 | nt | nt | -9.6 | i | 0.79 | 96.8
41 | Cc1ccc([N+](=O)[O-])cc1NC(=O)CN(C(=O)c1ccc(Cl)cc1)C1CCCCC1 | -2.8 | nt | nt | 0.5 | i | 0.77 | 113.2

New compounds follow:
no. | SMILES | GALR2 ag | INS promoter inh | INS promoter inh cell count | PKD1 kinase inh | HSV augment | HSV augment primary fold | RGS16-Gao HTS
51 | O=C(CN1CCC(NC(=O)C2CCCCC2)CC1)NCc1ccco1 | nt | 18.2 | 149.0 | -5.4 | i | 0.92 | 105.9
52 | Cc1cc(C)cc(C(=O)N2CCC(C(N)=O)CC2)c1 | -1.9 | -51.5 | 70.8 | 3.6 | i | 0.9 | 109.0
53 | N#Cc1cnn(Cc2ccccc2)c1/N=C/N1CCOCC1 | 0.5 | -138.1 | 119.0 | 3.5 | i | 1 | 104.1
54 | COc1ccc(CNC(=O)C2=CCN(S(=O)(=O)c3ccc(C)cc3)CC2)cc1 | nt | nt | nt | nt | i | 0.95 | 96.8
55 | Cn1c(N)c(C(=O)c2ccc(Cl)cc2)c(=O)n(C)c1=O | 0.1 | nt | nt | -8.1 | i | 1.12 | 102.5
56 | COc1ccc(NC(=O)/C(Cl)=C(/Cl)S(=O)Cc2ccccc2)cn1 (centres undefined) | -3.1 | nt | nt | -4.1 | i | 0.61 | 100.1
57 | CC(C)NC(=O)C(=O)c1cn(C)c2ccccc12 | nt | nt | nt | -3.2 | i | 0.88 | 98.6
58 | Cc1cc(C)c(S(=O)(=O)N(C)CC(=O)NCc2ccccn2)c(C)c1 | nt | nt | nt | -2.2 | i | 1.01 | 101.9
59 | CCOc1cc(NC(=S)NC)c(OCC)cc1NC(=O)c1ccco1 | 0.4 | -50.0 | 86.0 | 2.3 | i | 0.9 | 63.0
60 | CCCN1C(=O)/C(=C\c2nc3ccccc3c(=O)[nH]2)c2ccccc21 | nt | nt | nt | 0.4 | i | 0.87 | 102.2
61 | COc1cccc(NC(=O)CN(c2ccc([N+](=O)[O-])cc2)S(=O)(=O)c2ccccc2)c1 | -0.7 | 33.3 | 122.6 | -0.7 | i | 0.94 | 102.8
62 | CC(C)(C)C(=O)Nc1ccc(Sc2ccc([N+](=O)[O-])cc2)cc1 | -1.2 | 58.3 | 114.2 | 10.6 | i | 1.06 | 150.0
63 | O=C(O)c1ccccc1-c1ccccc1C(=O)NCc1cccc(C(F)(F)F)c1 | nt | nt | nt | -10.2 | i | 0.88 | 106.5
